Screening results as filed in PubChem BioAssay.
PINK1 modulator: A Quantitative High throughput Screen to Identify Chemical Modulators of PINK1 Expression | PINK1 immunofluorescence, high-content cytometry, 24 h | Potency, µM (top dose mostly 76.6 µM), for the others: at the top dose activation (PINK1 increase), hits mostly activators | 410,000 tested, 0.2% active; active = well fitted activation curve with a large enough effect; inconclusive = small, poorly fitted or top-dose-only effect; inactive = flat fitted curve, though single readings scatter; cell line not stated here;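 note: potency is the fitted concentration of half-maximal effect; % of control where 0% means no effect; nearly all actives have a fitted effect of over 65% in size; a mitochondrial uncoupler was the plate control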
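Fluorescence from anti-PINK1 antibody, together with nuclear and cell stains, was scanned on a laser-scanning cytometer. Before staining, stable-line cells were incubated 24 hours with compounds at 5 concentrations; primary antibody 12 h at 10 degrees C.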
CtBP-E1A inh: qHTS Assay for Inhibitors of the CtBP/E1A Interaction. AlphaScreen GST-E1A/His-CtBP binding, 1536-well; active compounds read low; control for the full effect not named in the record. activity change, % (test concentration not listed). 340,000 tested, 0.49% active; in the data active means activity change below about -65%; inconclusive means about -30% to -65%; inactive means above about -30%; note: % is set by controls: 0 for no effect and ±100 for the full control effect
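Protein mix (5X: 125 nM each GST-E1A, His-CtBP) was incubated with pinned compound 2 h at 37 deg C in dark, in 50 mM Tris pH 8.0 buffer with 300 mM NaCl. Glutathione donor and nickel acceptor beads followed; AlphaScreen signal read after 1 h.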
Six1-Eya2 inh: qHTS Assay for Inhibitors of the Six1/Eya2 Interaction; 360,000 tested, 0.56% active; AID 651725, 2012; AlphaScreen GST-Six1/His-Eya2 binding, biochemical; active compounds read low; control for the full effect not named in the record; activity change, % (test concentration not listed); in the data active = activity change below about -65%; inconclusive = about -30% to -65%; inactive = above about -30%; note: % is set by controls: 0 for no effect and ±100 for the full control effect
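Six1/Eya2 binding was read as AlphaScreen signal after compounds were pinned into GST-Six1 plus His-tagged Eya2 (5X stock 250/500 nM) in pH 8.0 Tris/NaCl/TCEP buffer, beads added, then incubated 1 h, 37 C, dark.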
Sfp PPTase inh: qHTS Assay for Inhibitors of Bacillus subtilis Sfp phosphopantetheinyl transferase (PPTase). Potency, µM, for the others: max response, negative = inhibition, usual class: inhibitors. 310,000 tested, 3.5% active. 4'-phosphopantetheinyl transferase ffp (Bacillus subtilis), Q9F4F7. Biochemical Sfp PPTase activity, qHTS; active = well fitted inhibition curve with a large enough effect; inconclusive = small, poorly fitted or top-dose-only effect, or another doubt; inactive = no such curve, though single readings can be large or run the other way;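 note: the enzyme is Sfp with the accession as filed and its product quenches rhodamine fluorescence; potency is the fitted concentration of half-maximal effect; 0% = enzyme reaction without inhibitor and -100% = no enzyme wells; top concentration of the series not given in the record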
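Compounds were incubated with enzyme (final 15 nM) for 15 min at room temperature before substrate addition started the reaction. Fluorescence at 525 nm excitation, 598 nm emission was recorded immediately and after 30 minutes.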
D2 ag: Beta-Arrestin HTS for Positive Allosteric Modulators of the Human D2 Dopamine Receptor: Agonists; D(2) dopamine receptor (Homo sapiens), P14416; DiscoveRx PathHunter D2 beta-arrestin, luminescence, 90 min; 100% = 57 uM dopamine signal; activation, % (concentration not given with the values); 360,000 tested, 0.084% active; in the data active = activation above about 40%; inconclusive = about 15% to 40%; inactive = below about 15%; note: compound concentration not given in the record; the text of the record calls up to 30% inactive
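DiscoveRx PathHunter D2 beta-arrestin cells (2,100/well) attached overnight, then compound-stimulated 90 min at 37 C in HBSS/10 mM HEPES/0.1% Tween-20 buffer; beta-galactosidase complementation read by luminescence after 1 h at ambient temperature. Dopamine 57 uM final (EC100) as control.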
D2 potentiator: Beta-Arrestin HTS for Positive Allosteric Modulators of the Human D2 Dopamine Receptor: Potentiators; D(2) dopamine receptor (Homo sapiens), P14416; DiscoveRx D2 beta-arrestin cells, luminescence, 90 min; 100% = 57 uM dopamine signal; potentiation, % (concentration not given with the values); 360,000 tested, 0.23% active; active = potentiation of 50% or more; inconclusive = 30% to 50%; inactive = 30% or less;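 note: compound concentration not given in the record; tested on top of an EC20 dose of dopamine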
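PathHunter D2 cells, attached overnight at 37 deg C, received compound in DMSO plus dopamine at EC20 (50 nM final) for 90 min at 37 deg C. Beta-arrestin recruitment was read as luminescence after 1 h with detection reagent at ambient temperature.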
TRPV1 PAM: HTS Assay for Compounds that Act as Potentiators of the Vanilloid Receptor 1. TRPV1-expressing cells, Fluo-8 calcium influx, capsaicin EC20 potentiation; host cell line not named in the record; control for the full effect not named in the record. Transient receptor potential cation channel subfamily V member 1 (Homo sapiens), Q8NER1. potentiation, % at 8.33 µM. 320,000 tested, 0.02% active; active means potentiation above 80%; inconclusive means 30% to 80%; inactive means below 30%; note: 0% is about no effect
Target sequence (Q8NER1 whole entry, looked up): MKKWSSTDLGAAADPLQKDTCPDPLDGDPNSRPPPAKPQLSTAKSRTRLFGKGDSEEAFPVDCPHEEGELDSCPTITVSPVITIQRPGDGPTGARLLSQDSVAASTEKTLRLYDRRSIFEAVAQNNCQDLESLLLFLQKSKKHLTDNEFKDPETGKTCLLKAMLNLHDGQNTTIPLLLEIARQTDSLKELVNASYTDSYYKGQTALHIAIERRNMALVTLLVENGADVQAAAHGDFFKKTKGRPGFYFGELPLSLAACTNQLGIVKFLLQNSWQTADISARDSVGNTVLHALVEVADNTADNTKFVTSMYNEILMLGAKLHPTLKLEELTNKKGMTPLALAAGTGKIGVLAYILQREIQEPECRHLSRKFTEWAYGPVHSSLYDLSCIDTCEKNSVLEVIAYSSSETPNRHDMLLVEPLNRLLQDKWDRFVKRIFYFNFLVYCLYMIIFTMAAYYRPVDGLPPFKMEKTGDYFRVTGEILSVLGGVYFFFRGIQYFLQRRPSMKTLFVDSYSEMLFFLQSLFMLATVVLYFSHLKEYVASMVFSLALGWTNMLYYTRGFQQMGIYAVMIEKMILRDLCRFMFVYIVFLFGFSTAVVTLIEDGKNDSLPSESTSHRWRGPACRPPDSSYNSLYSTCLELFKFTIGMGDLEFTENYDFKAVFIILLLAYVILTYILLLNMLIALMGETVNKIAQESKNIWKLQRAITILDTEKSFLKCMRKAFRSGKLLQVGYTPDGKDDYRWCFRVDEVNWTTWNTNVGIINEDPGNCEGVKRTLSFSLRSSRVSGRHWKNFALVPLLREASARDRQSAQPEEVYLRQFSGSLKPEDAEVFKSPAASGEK
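Cells expressing TRPV1 were dye-loaded with Fluo-8 and read kinetically: 10 s baseline, 3 min after compound (agonist portion), then 2 min after EC20 capsaicin (allosteric enhancer portion). Calcium-bound dye fluorescence at 480/520 nm.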
The depositor's hits bear a star; ? = inconclusive; . = not tested or not shown; & = joins results of further samples; [ ] = dose if it differs, or a comment.

Every second line gives: CtBP-E1A inh, D2 potentiator, Sfp PPTase inh, D2 ag, Six1-Eya2 inh, TRPV1 PAM, PINK1 modulator
N#CCSc1nnc(-c2cccnc2)n1-c1ccccc1
 : 2, 1, 2%, -1.5, 9, 2, 0.6%
CCN(CC(=O)Nc1ccc2c(c1)OCCO2)C(=O)/C=C/c1ccccc1
 : ., -6, 17%, -6.6, -7, 20, 0.6%
CC(=O)N1CCN(S(=O)(=O)c2cccc(C(=O)Nc3ccccc3N3CCOCC3)c2)CC1
 : ., -14, -38%, 1.7, -1, -12, -1.6%
Cc1ccc(C)n1NC(=O)c1ccc(Cl)cc1Cl
 : 9, -9, 0%, -3.1, -1, -11, 3.8%
Cc1ccc2c(Cl)cc(Cl)c(OCC(=O)NC3CCS(=O)(=O)C3)c2n1 (centres undefined)
 : 0, -3, -2%, 1.6, 6, 2, -0.5%
COC(=O)C1(NC(=O)NC2CCCCC2)CCCCC1
 : 10, -10, -4%, -3.3, 5, 22, -2.0%
CC(=O)N1CCc2ccc(S(=O)(=O)N3CCN(C)CC3)cc21
 : 14, -7, 5%, -1.0, 7, ?, -1.1%
NC(=O)CSc1nc(C2CC2)nc2sc3c(c12)CCCC3
 : ., -3, 21%, -2.7, 2, -14, -0.5%
CNC(=O)C1CC(=O)N(Cc2ccccc2)C(=Nc2ccc(OC)cc2)S1 (centres undefined)
 : -3, -4, 21%, -3.9, -3, -3, 35%[38.3 µM]
COc1ccc(CCN2C(=O)c3[nH]nc(-c4ccccc4O)c3C2c2cccc(O)c2)cc1OC (centres undefined)
 : 0, 5, 2%, 3.5, -7, 18, -2.8%
O=S(=O)(c1ccc(Cl)s1)N1CCNCC1
 : -11, -4, ., -5.0, 2, ., -0.3%
Cc1ccc(CNC(=O)Nc2nnc([C@H]3C[C@H](O)[C@@H](CO)O3)s2)cc1
 : 9, -1, ., 6.5, 6, ., -0.1%
Cc1cc(C)c(C#N)c(N2CCSCC2)n1
 : -1, -4, 5%, -1.5, 0, -10, 1.1%
CC(=O)c1ccc(NC(=O)c2cc(S(=O)(=O)N3CCOCC3)ccc2C)cc1
 : 0, -2, 14%, 0.9, 9, -23, 1.2%&-1.1%
COCCNC(=O)/C(C#N)=C\c1ccc(CNS(=O)(=O)c2ccccc2)o1
 : -9, -3, 16%, -2.1, 3, 11, -0.6%
Cc1ccc(C)c(C(=O)CCC(=O)NCc2ccc(Cl)cc2)c1
 : 9, -10, 1%, -3.8, 9, -4, 3.1%
O=C(CCC(=O)N1CCOc2ccccc21)NCCCN1CCOCC1
 : -5, -6, 11%, -4.2, -11, -2, 0.9%
CN(C)CCCNC(=S)N1CCN(c2nc(-c3ccccc3)cs2)CC1
 : -16, -15, -4%, -0.7, -20, 22, 4.6%
COc1ccc(C(=O)Nc2ccc(N3CCN(C(=O)c4ccccc4C)CC3)cc2)cc1
 : -4, 5, 2%, 1.0, 7, 4, 8.9%
COC(=O)Cc1cc(=O)[nH]c(/N=C(\N)Nc2ccc(C)cc2)n1
 : 0, -11, -1%, 0.7, 2, 0, .

(cont.)
Every second line gives: CtBP-E1A inh, D2 potentiator, Sfp PPTase inh, D2 ag, Six1-Eya2 inh, TRPV1 PAM, PINK1 modulator
O=C(NNc1ccccn1)C(c1ccccc1)c1ccccc1
 : -2, -5, 8%, -6.6, 8, 16, 0.3%
CCc1ccc(C(=O)COC(=O)CNC(=O)CNS(=O)(=O)c2ccccc2)cc1
 : 0, -2, 6%, -3.5, 2, 25, 0.9%
Cc1sc2ncnc(SCC(=O)N3CCCC3=O)c2c1C
 : 0, 3, 2%, -1.5, 2, 9, 3.0%
CCOc1ccccc1N(CC(=O)NCC1CCCO1)C(=O)CCC(=O)Nc1cc(C)on1 (centres undefined)
 : 2, 2, 8%, -3.4, 4, 0, 2.1%
O=C(COc1ccc(Cl)cc1Cl)OCC(=O)c1ccc[nH]1
 : -1, -2, ., -20, -1, 18, -2.1%
Cc1cc(C)c(S(=O)(=O)NCCCn2ccnc2)cc1C
 : 1, 0, ?, 0.7, -11, ?, 0.2%
O=C(OC1CCOC1=O)c1cncc(Br)c1 (centres undefined)
 : 0, 0, 5%, -1.2, 10, -12, -0.1%
CNC(=S)NNC(=O)CSCc1c(Cl)cccc1Cl
 : -1, -9, 4%, -3.9, 3, 7, -0.3%
Cc1ccc(S(=O)(=O)N2CCOCC2)cc1NC(=O)COC(=O)CCC(=O)c1cccs1
 : 0, -16, 2%, -1.9, 6, -6, 0.3%
Cc1cc(C(=O)NNc2c(Cl)cccc2Cl)n(C(C)(C)C)n1
 : -5, 0, -1%, -2.7, 1, 25, 0.8%
CCOc1ccc(OCCC(=O)N(CC(=O)Nc2ccccc2C(F)(F)F)Cc2ccco2)cc1
 : -1, 5, ., 0.4, -8, ?, -1.1%
CC1(C)CC(=O)C2=C(C1)OC1=C(C(=O)CC(C)(C)C1)C2c1ccccc1Cl
 : 9, 0, ., -1.9, 3, ., 1.2%
COc1ccccc1NC(=S)N(Cc1ccco1)Cc1cc2cc(C)cc(C)c2[nH]c1=O
 : -5, -12, 11%, -2.9, -18, 7, 23%
COc1ccc(C(=O)NNC(=O)Cc2ccc(Cl)cc2)cc1
 : -3, -10, 19%, 5.4, 15, 3, 0.2%
Oc1c(Cl)cc(Cl)cc1/C=C/c1ccc2cccc(O)c2n1
 : -9, -2, 13%, 8.3, -11, 13, ?
C=CCN(CC=C)S(=O)(=O)c1ccc(NC(=S)NC(=O)/C=C/c2ccccc2)cc1
 : 0, -5, 15%, -6.3, 19, 2, 3.2%
CCOC(=O)/C(=N/Nc1ccccc1)c1csc(Nc2ccccc2)n1
 : -7, -15, 14%, -3.2, -14, -1, 11µM*
NC(=O)C1CCN(c2ncnc3c2c(-c2ccccc2)cn3-c2ccccc2)CC1
 : -9, 3, -11%, 5.1, -20, 12, 0.2%
O=C(CCN1C(=O)S/C(=C\c2ccccc2)C1=O)Nc1ccc(S(=O)(=O)Nc2nccs2)cc1
 : -22, -16, 8%, -3.6, -28, -12, -1.2%
Cc1nc(C(=O)N(C)C)nn1-c1ccc(Cl)cc1Cl
 : -3, -15, 16%, -1.5, 2, -5, -0.3%

(list continues)
Every second line gives: CtBP-E1A inh, D2 potentiator, Sfp PPTase inh, D2 ag, Six1-Eya2 inh, TRPV1 PAM, PINK1 modulator
CCc1ccc(NC(=O)Cn2cccc2)cc1
 : 0, -3, 18%, -1.8, -4, 6, -0.9%
Cc1ccc(Cl)cc1N1CCN(C(=O)CCS(=O)(=O)c2ccc3c(c2)NC(=O)CO3)CC1
 : -4, 9, 10%, 5.9, -3, -15, -0.1%
O=C(COC(=O)Cc1ccccc1F)NCCNC(=O)COC(=O)Cc1ccccc1F
 : -2, -8, ., -4.2, 2, 27, -1.7%
Cc1nnc(SCC(=O)Nc2sccc2C#N)s1
 : 0, 8, -2%, -2.3, -5, ?, 0.9%
CC(C)(C)CC(=O)Nc1cc2c3c(c1)CCC(=O)N3CCC2
 : -1, -10, 13%, -0.5, 7, 0, 0.1%
CCN(CC)c1ccc(/C=C2\C(=O)N(c3nnc(C)c(=O)[nH]3)N=C2C)cc1
 : -92*, 7, 10µM*, -10, -92*, 5, 0.3%
CC(OC(=O)CCCSc1nc2ccccc2s1)C(=O)NC(N)=O (centres undefined)
 : -1, 2, -11%, -1.9, -1, -8, 2.3%
COc1ccc(N2CC(C(=O)N(C)CC(=O)Nc3ccc(Cl)c(C(F)(F)F)c3)CC2=O)c(OC)c1 (centres undefined)
 : -4, -5, ., -7.5, -1, -11, 0.5%
CCOc1ccc(C(=O)/C=C/Nc2ccc(S(=O)(=O)Nc3cc(C)nc(C)n3)cc2)cc1
 : -7, -5, 6%, -2.3, -18, 0, -0.2%
COc1cc(C(=O)N/N=C/c2cn(Cc3cccc(F)c3)c3ccccc23)ccc1O
 : -3, -7, 3%, -1.1, -8, -2, 3.5%
CC(C)(C)C1=CC(=O)C(N2CCOCC2)=CC1=O
 : -12, 22, -16%, -3.0, -4, -6, -0.6%
COc1ccc(N2CC(C)Cn3c2nc2c3c(=O)n(CCc3ccccc3)c(=O)n2C)cc1 (centres undefined)
 : 6, 9, 5%, -0.7, 10, -2, 2.1%
Cc1ccc(S(=O)(=O)N(C)C)cc1NC(=O)COC(=O)c1n[nH]c(=O)c2ccccc12
 : 0, -19, 10%, -6.8, 7, -6, 0.3%
CCOc1cc(NC(=S)NCCCN(C)C)c(OCC)cc1NC(=O)c1cccs1
 : -12, 2, 13%, -4.1, -9, 0, 0.7%
c1ccc(-c2cn(-c3ccccc3)c3[n+]2CCCS3)cc1
 : -2, 2, 13%, -1.2, 1, 6, 0.9%
Cn1nnnc1SC(C(=O)Nc1cccc(C(F)(F)F)c1)c1ccccc1 (centres undefined)
 : 10, -7, 10%, -4.2, 6, 23, 10%
Cc1ccc(N(Cc2cc(=O)[nH]c3ccccc23)C(=O)C(C)C)c(C)c1
 : -4, 6, -11%, -2.8, 16, -7, 0.6%
CC(C)(C)OC(=O)NCCCC[C@H](NC(=O)c1nc[nH]c1C(=O)NCc1ccc(CNC(=O)OC(C)(C)C)cc1)C(=O)OC(C)(C)C
 : 1, -6, 11%, -0.9, -5, ?, -0.2%
COc1ccc(/C=N/N2CCOCC2)cc1COc1ccc(Cl)cc1
 : -14, -12, ?, 0.8, -23, -8, 7.1%
